Screening results as filed in PubChem.
Mtb bLac sens: beta-lactam sensitization of Mtb H37Rv. M. tuberculosis H37Rv growth with meropenem, percent inhibition; hits of this screen are not shown here. inhibition, % at 25 µM. 330,000 compounds, 0.27% hits. AID 434955;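 active means about 74% or more and at least 40 points above the plate without the antibiotic, then above 30% in a dose series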;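 further: growth measured after seven days incubation then overnight dye step; 0% = bacteria only wells and 100% = bacteria with antibiotic; twin plates without the antibiotic show which effects depend on it; some results filed as inactive read as strong as hits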
The depositor's hits bear a star; & = joins results of further samples.

SMILES | Mtb bLac sens
CCCCCCCCO | -9
COc1c(O)cc2c(c1O)C1OC(CO)C(O)C(O)C1OC2=O (centres undefined) | -7
CC(=O)N1C[C@H](O)C[C@H]1C(=O)O | 2
C=C1c2cccc(O)c2C(=O)C2C(=O)[C@]3(O)C(=O)C(C(N)=O)C(=O)[C@@H](N(C)C)[C@@H]3[C@@H](O)[C@H]12 (some centres undefined) | 97
Cc1onc(-c2ccccc2Cl)c1C(=O)N[C@@H]1C(=O)N2[C@@H]1SC(C)(C)[C@@H]2C(=O)O | -3&-1
CC[C@@H]1C(=O)OC[C@@H]1Cc1cncn1C | 2
O=C(O)[C@@H]1[C@H]2C[C@H]3c4[nH]c5ccccc5c4CCN3C[C@@H]2CC[C@@H]1O | 1
CC(C)=CC(=O)O[C@@H]1Cc2cc3ccc(=O)oc3cc2OC1(C)C | 3
CCC[C@H](N[C@@H](C)C(=O)N1[C@H](C(=O)O)C[C@@H]2CCCC[C@@H]21)C(=O)OCC | 4

Shown field by field: entries from further up.
CCCCCCCCO
- Mtb bLac sens = -9
COc1c(O)cc2c(c1O)C1OC(CO)C(O)C(O)C1OC2=O (centres undefined)
- Mtb bLac sens = -7
CC(=O)N1C[C@H](O)C[C@H]1C(=O)O
- Mtb bLac sens = 2

The list is partial. The share of hits here may be higher or lower than overall.
